Screening data (PubChem)
Vaccinia stage: Vaccinia orthopox stage-specific inhibition; AID 1053133; activity change (mCherry), % (concentration not given with the values); Vaccinia-infected cells, mCherry/Venus stage reporter fluorescence; active compounds read low; some inactives read as strong as hits; 89,000 compounds, 0.01% hits;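 active = mCherry past -33% and 40 or more points under the early reporter, replicates agreeing; inconclusive = past -33% without that gap or agreement; tested in A549 cells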;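 also: scaled between vehicle wells and reference inhibitor wells; 23 nL library stock went into each well; one replicate is shown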
Vaccinia stage Venus: further read-out of Vaccinia stage, marked with its call; activity change (Venus), %; measured here: Venus reporter, other viral stage;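 negative = less Venus signal; first of two replicates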
Starred values were filed as active, the others as inactive; ? = inconclusive; / = no result given; & = joins results of further samples.

Structure,Vaccinia stage,Vaccinia stage Venus
CC(C)NC(=O)Nc1ccc2c(c1)C(=O)N([C@@H](C)CO)C[C@H](C)[C@@H](CN(C)C)O2,26,18
CC(C)C(=O)Nc1ccc2c(c1)C(=O)N(C)[C@@H]1CC[C@H](CC(=O)Nc3ccccc3)O[C@@H]1CO2,-13,-2
CCN(C[C@@H]1[C@@H](c2ccccc2)[C@@H](CO)N1S(C)(=O)=O)C(=O)C1CC1,16,15
O=C(C[C@@H]1C[C@@H]2c3cc(NC(=O)Nc4ccccc4F)ccc3O[C@@H]2[C@@H](CO)O1)NCc1ccc(Oc2ccccc2)cc1,10,9
COc1ccc(S(=O)(=O)Nc2ccc3c(c2)OC[C@@H](C)N(Cc2cc(F)ccc2F)C[C@@H](C)[C@H](OC)CN(C)C3=O)cc1,?,/
CN(C)c1ccc2c(c1)[C@@H]1C[C@@H](CC(=O)NCc3ccc(Cl)cc3)O[C@H](CO)[C@@H]1O2,-1,4
C[C@@H]1CCCCO[C@H](CN(C)CC2CCCCC2)[C@H](C)CN([C@H](C)CO)C(=O)c2cc(NC(=O)Nc3ccc4c(c3)OCO4)ccc2O1,?,/
CO[C@@H]1CN(C)C(=O)c2cc(NC(=O)C3CC3)ccc2OC[C@H](C)N(Cc2cccc(F)c2)C[C@@H]1C,-8,-3
C[C@@H]1CN([C@@H](C)CO)C(=O)c2cc(NS(=O)(=O)c3ccc(Cl)cc3)ccc2O[C@@H]1CN(C)C(=O)Nc1ccc(F)cc1,5,7
COCC(=O)N1[C@@H](CO)[C@@H]2c3ccccc3N(C(=O)Nc3cc(F)ccc3F)C[C@@H]21,8,4
C[C@@H]1CCCCO[C@H](CN(C)C(=O)Nc2ccccc2)[C@@H](C)CN([C@@H](C)CO)C(=O)c2cc(NS(=O)(=O)c3cccs3)ccc2O1,-7,-7
Cc1ccc(-c2cnc3c(c2)C(=O)N([C@H](C)CO)C[C@@H](C)[C@H](CN(C)C(=O)Cc2cccnc2)O3)cc1,11,5
O=C(C[C@@H]1CC[C@@H]2[C@H](COC[C@H](O)CN2S(=O)(=O)c2cccc(F)c2)O1)NC1CCC1,15,10
COCC(=O)Nc1ccc2c(c1)OC[C@@H](C)N(CCc1ccccc1)C[C@@H](C)[C@@H](OC)CN(C)C2=O,-14,-9
Cc1noc(C)c1S(=O)(=O)Nc1ccc2c(c1)CC(=O)N([C@H](C)CO)C[C@@H](C)[C@@H](CN(C)CC1CCCCC1)O2,-21,-8

The closing six records of the section above open the next one.
Structure,Vaccinia stage,Vaccinia stage Venus
COCC(=O)N1[C@@H](CO)[C@@H]2c3ccccc3N(C(=O)Nc3cc(F)ccc3F)C[C@@H]21,8,4
C[C@@H]1CCCCO[C@H](CN(C)C(=O)Nc2ccccc2)[C@@H](C)CN([C@@H](C)CO)C(=O)c2cc(NS(=O)(=O)c3cccs3)ccc2O1,-7,-7
Cc1ccc(-c2cnc3c(c2)C(=O)N([C@H](C)CO)C[C@@H](C)[C@H](CN(C)C(=O)Cc2cccnc2)O3)cc1,11,5
O=C(C[C@@H]1CC[C@@H]2[C@H](COC[C@H](O)CN2S(=O)(=O)c2cccc(F)c2)O1)NC1CCC1,15,10
COCC(=O)Nc1ccc2c(c1)OC[C@@H](C)N(CCc1ccccc1)C[C@@H](C)[C@@H](OC)CN(C)C2=O,-14,-9
Cc1noc(C)c1S(=O)(=O)Nc1ccc2c(c1)CC(=O)N([C@H](C)CO)C[C@@H](C)[C@@H](CN(C)CC1CCCCC1)O2,-21,-8
C[C@H](CO)N1C[C@H](C)[C@@H](CN(C)C(=O)C2CCC2)Oc2ncc(-c3cccnc3)cc2C1=O,4,-2
O=C(C[C@@H]1CC[C@H](NS(=O)(=O)c2ccccc2)[C@H](CO)O1)NCCN1CCCCC1,7,-3
N#C[C@@H]1[C@H](c2ccc(C3=CCCCC3)cc2)[C@H](CO)N1C(=O)c1ccccn1,-10,-4
C[C@H]1CN([C@@H](C)CO)C(=O)c2ccccc2-c2ccccc2CO[C@@H]1CN(C)C(=O)[C@H](Cc1ccccc1)N(C)C,16,3
Cc1ccc(-c2ccc3c(c2)O[C@H](CN(C)Cc2cccnc2)[C@@H](C)CN([C@H](C)CO)S3(=O)=O)cc1,?,/
C[C@@H]1CN([C@H](C)CO)C(=O)CCCn2cc(nn2)CO[C@H]1CN(C)C(=O)CCCN(C)C,16,17
C[C@@H]1CN([C@H](C)CO)C(=O)Cc2cc(NC(=O)CCCCCC(=O)Nc3ccccc3N)ccc2O[C@@H]1CN(C)Cc1ccccc1,-27,-24
CCN1[C@@H]2Cn3c(ccc(C4=CCCCC4)c3=O)[C@H]1[C@@H](C(=O)NCCc1ccncc1)[C@@H]2CO,12,8
O=C(C[C@@H]1C[C@@H]2c3cc(NS(=O)(=O)c4ccc(F)cc4)ccc3O[C@@H]2[C@H](CO)O1)NCc1cc(F)ccc1F,-4,-1
C[C@H]1CN([C@@H](C)CO)C(=O)CCCn2nncc2CO[C@@H]1CN(C)S(=O)(=O)c1ccc2ccccc2c1,2,-1
C[C@H](CO)N1C[C@H](C)[C@H](CN(C)S(C)(=O)=O)Oc2c(NC(=O)CCCCCC(=O)Nc3ccccc3N)cccc2C1=O,8,0
CO[C@H]1CN(C)C(=O)c2cc(NC(=O)c3cnccn3)ccc2OC[C@@H](C)N(C)C[C@@H]1C,5,5
C[C@H]1CN([C@@H](C)CO)C(=O)c2cc(NC(=O)Nc3ccc4c(c3)OCO4)ccc2O[C@@H]1CN(C)S(=O)(=O)c1cccs1,4,4
COc1cccc(CN(C)C[C@@H]2OCc3ccccc3-c3c(n(C)c4ccccc34)C(=O)N([C@@H](C)CO)C[C@H]2C)c1,?,/
C[C@H](CO)N1C[C@H](C)[C@@H](CN(C)CC2CC2)OCCCC[C@H](C)Oc2ccc(NS(C)(=O)=O)cc2C1=O,19,2

Brought forward from above: 2 entries, then new ones.
Structure,Vaccinia stage,Vaccinia stage Venus
COc1cccc(CN(C)C[C@@H]2OCc3ccccc3-c3c(n(C)c4ccccc34)C(=O)N([C@@H](C)CO)C[C@H]2C)c1,?,/
C[C@H](CO)N1C[C@H](C)[C@@H](CN(C)CC2CC2)OCCCC[C@H](C)Oc2ccc(NS(C)(=O)=O)cc2C1=O,19,2
CNC(=O)C[C@H]1CC[C@@H]2[C@H](COC[C@H](O)CN2Cc2ccc(Cl)c(Cl)c2)O1,11,17
COc1ccc2c3c(n(C)c2c1)[C@@H](CO)N(C(=O)C1CCCC1)CC31CN(C(=O)Nc2cccc(F)c2)C1,-25,-16
C[C@H](CO)N1C[C@H](C)[C@H](CN(C)Cc2ccccc2)Oc2cc(Br)ccc2S1(=O)=O,?,/
Cc1noc(C)c1NC(=O)N(C)C[C@H]1Oc2c(NS(=O)(=O)c3c(C)noc3C)cccc2C(=O)N([C@H](C)CO)C[C@H]1C,6,1
Cc1noc(C)c1NC(=O)N[C@@H]1CC[C@@H](CC(=O)Nc2ccccc2)O[C@H]1CO,-2,-2
C[C@@H]1CN([C@H](C)CO)C(=O)c2cc(NS(=O)(=O)c3ccc(F)cc3)ccc2O[C@@H](C)CCCCO[C@@H]1CN(C)C(=O)C1CCCCC1,?,/
C[C@@H]1CN([C@H](C)CO)C(=O)c2cc(NC(=O)Cc3cn(C)c4ccccc34)ccc2O[C@H]1CN(C)S(=O)(=O)c1cccs1,14,6
COc1ccccc1CNC(=O)C[C@H]1C[C@@H]2c3cc(NC(=O)NC4CCCC4)ccc3O[C@@H]2[C@@H](CO)O1,13,8
O=S(=O)(Cc1ccccc1)N1CCCCN2[C@H](CO)[C@@H](c3ccc(-c4cncnc4)cc3)[C@@H]2C1,8,-1
C[C@H]1CN([C@@H](C)CO)C(=O)c2cc(NS(=O)(=O)c3cn(C)cn3)ccc2O[C@@H]1CN(C)Cc1ccc2c(c1)OCO2,3,6
CN(C)C(=O)c1cccc(-c2ccccc2[C@H]2[C@@H](CO)N(C(=O)C3CCCC3)[C@H]2C#N)c1,-14,-4
C[C@@H]1CN([C@@H](C)CO)C(=O)c2cccc(NS(C)(=O)=O)c2O[C@@H]1CN(C)Cc1ccc(C(=O)O)cc1,1,-4
O=C(Nc1ccccc1)[C@@H]1[C@@H](CO)[C@@H]2Cn3c(cccc3=O)[C@@H]2N1CC1CCOCC1,18,16
O=C(Nc1ccc(C(F)(F)F)cc1)N[C@@H]1CC[C@@H](CCNC(=O)c2ccccc2F)O[C@H]1CO,-13,-4
O=C(C[C@H]1C=C[C@H](NC(=O)C2CCOCC2)[C@@H](CO)O1)NCc1ccncc1,5,0
COc1ccc(NC(=O)Nc2ccc3c(c2)C(=O)N([C@H](C)CO)C[C@@H](C)[C@@H](CN(C)Cc2ccc(-c4ccccc4)cc2)O3)cc1,?,/
CCC(=O)N(C)C[C@@H]1Oc2cc(-c3ccccc3)ccc2S(=O)(=O)N([C@H](C)CO)C[C@H]1C,16,8
CC(C)CC#Cc1ccc2c(c1)O[C@H](CN(C)CC1CCOCC1)[C@H](C)CN([C@@H](C)CO)S2(=O)=O,?,/
Cc1ccc(-c2ccc([C@@H]3[C@H](CO)N4CCCCN(S(=O)(=O)c5cccc(C)c5)C[C@@H]34)cc2)cc1,?,/
CNC[C@H]1OCCCC[C@@H](C)Oc2ccc(NC(=O)c3ccncc3)cc2C(=O)N([C@@H](C)CO)C[C@@H]1C,6,13
CN(C)C(=O)c1ccc(-c2ccccc2[C@@H]2[C@H](C#N)N(C(=O)C3CCCC3)[C@H]2CO)cc1,6,-3
CN1C(=O)c2cc(NC(=O)c3cccc(F)c3)ccc2OC[C@H]2O[C@H](CC(=O)NCC3CC3)CC[C@H]21,-3,-8
C[C@H]1CN([C@@H](C)CO)C(=O)c2cc(NC(=O)Nc3ccccc3)ccc2O[C@@H]1CN(C)C,29,21
CN1C(=O)c2cc(NS(=O)(=O)CC(F)(F)F)ccc2OC[C@H]2O[C@@H](CC(=O)Nc3cccc(F)c3)CC[C@@H]21,8,9
C[C@@H]1CN([C@H](C)CO)C(=O)c2cc(NS(=O)(=O)c3cn(C)cn3)ccc2O[C@H]1CN(C)Cc1ccncc1,10,-2
CCCNC(=O)N1CC2(CCN(CC3CCCCC3)CC2)c2c(n(C)c3cc(OC)ccc23)[C@H]1CO,-11,-13
COc1ccc(NC(=O)Nc2ccc3c(c2)C(=O)N([C@H](C)CO)C[C@H](C)[C@@H](CN(C)S(=O)(=O)c2cccs2)OCCCC[C@H](C)O3)cc1,0,4
COc1cccc(S(=O)(=O)Nc2ccc3c(c2)OC[C@H](C)N(C(=O)Cc2cccnc2)C[C@@H](C)[C@H](OC)CN(C)C3=O)c1,10,6
O=C(C[C@H]1C[C@@H]2c3cc(NS(=O)(=O)c4ccc(F)cc4)ccc3O[C@@H]2[C@H](CO)O1)N1CCc2ccccc2C1,-4,8
O=C(NC1CCCC1)[C@H]1[C@H](CO)[C@H]2Cn3c(ccc(-c4ccccc4)c3=O)[C@@H]1N2CC1CC1,9,2
O=C(CN1CCOCC1)N1CCCCN2[C@H](CO)[C@@H](c3ccc(-c4ccccc4F)cc3)[C@@H]2C1,1,-2
C[C@H](CO)N1C[C@H](C)[C@H](CN(C)Cc2cccnc2)Oc2cc(C3=CCCCC3)ccc2S1(=O)=O,?,/
CN(C)C(=O)c1ccc(-c2ccc(C3[C@H]4CNC[C@@H]3N4C(=O)NC3CCCCC3)cc2)cc1 (some centres undefined),14,9
Cc1noc(C)c1S(=O)(=O)N(C)C[C@H]1Oc2ccc(NC(=O)Cc3cn(C)c4ccccc34)cc2CC(=O)N([C@H](C)CO)C[C@H]1C,16,14
N#C[C@@H]1[C@H](c2ccc(C#Cc3ccc(F)cc3)cc2)[C@@H](CO)N1C(=O)Nc1ccc(F)cc1,?,/
C[C@H]1CN([C@@H](C)CO)C(=O)c2cc(-c3ccc(C(=O)N(C)C)cc3)cnc2O[C@@H]1CN(C)C(=O)CN(C)C,16,2
COc1ccc(NC(=O)Nc2ccc3c(c2)C(=O)N([C@H](C)CO)C[C@@H](C)[C@@H](CN(C)S(=O)(=O)c2cccs2)OCCCC[C@@H](C)O3)cc1,-14,-5
CCCNC(=O)N1[C@H](C#N)[C@@H](c2ccccc2-c2ccccc2F)[C@@H]1CO,-2,-2
CNC[C@H]1Oc2c(NC(=O)Nc3ccc(OC)cc3)cccc2C(=O)N([C@@H](C)CO)C[C@@H]1C,-4,-6
COc1cccc(C(=O)Nc2ccc3c(c2)C(=O)N(C)[C@H]2CC[C@H](CC(=O)NCC(F)(F)F)O[C@@H]2CO3)c1,6,1
COc1ccc(-c2ccc3c(c2)[C@@H]2[C@@H](CCN2C(=O)Cc2cccnc2)[C@@H](CO)N3C)cc1,-2,-15
COc1ccccc1C#Cc1cnc2c(c1)C(=O)N([C@H](C)CO)C[C@H](C)[C@@H](CN(C)S(=O)(=O)c1cn(C)cn1)O2,0&-14,-3&-2
COc1cccc(CNC(=O)[C@@H]2[C@@H](CO)[C@@H]3Cn4c(ccc(C5=CCCC5)c4=O)[C@@H]3N2CC2CC2)c1,8,15
C[C@@H]1CN([C@@H](C)CO)S(=O)(=O)c2ccc(C#Cc3ccccc3)cc2O[C@@H]1CN(C)S(C)(=O)=O,-33,-20
COc1cccc(-c2cnc3c(c2)C(=O)N([C@H](C)CO)C[C@@H](C)[C@H](CN(C)Cc2cccnc2)O3)c1,7,5
C[C@H]1CN([C@@H](C)CO)C(=O)c2cc(NS(=O)(=O)c3ccccc3)ccc2O[C@H]1CN(C)Cc1ccc(Oc2ccccc2)cc1,-26,-17
Cc1noc(C)c1S(=O)(=O)N(C)C[C@@H]1OCCCC[C@H](C)Oc2ccc(NC(=O)Cc3ccccc3)cc2C(=O)N([C@H](C)CO)C[C@H]1C,-29,-21
O=C(C[C@@H]1C[C@@H]2c3cc(NC(=O)C4CCC4)ccc3O[C@@H]2[C@@H](CO)O1)NCC(F)(F)F,15,11

Some of the compounds tested. The share of hits here may be higher or lower than overall.
